# INS promoter inh: TRM-6 insulin promoter activity inhibition | TRM-6 cells (human fetal islet line), insulin promoter-eGFP reporter, imaging; reporter expression induced with tamoxifen | inhibition, % at 2 µM | actives 0.9% (n = 130,000) | AID 1273;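 active means inhibition above the mean plus 3 SD, with well images judged a real hit on visual review, cut at about 60% in these data, passing the limit was not always enough; inconclusive means inhibition over the cutoff but images rejected on review; inactive means inhibition not above the cutoff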
# PKD1 inh: blocks activity of human protein kinase D1 | PKD1 kinase fluorescence polarization assay | AID 797 | inhibition, %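 (about 10 µM by stock and volumes)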 | actives 0.056% (n = 200,000) | Q15139;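 active means inhibition of 50% or more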;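 further: controls were vehicle for no effect and a reference inhibitor for full effect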
# GALR2 agonist: activates the human galanin receptor 2. GALR2-expressing cells, agonist activation read-out. activation, %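 (tested at 5 µM)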. actives 0.48% (n = 140,000). AID 803;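 active means above mean plus 3 SD of all compounds, about 5% in these data, not always enough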;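 further: 0% = vehicle buffer wells and 100% = reference agonist at full effect; tested in CHO reporter cells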
# Target sequence (O43603 whole entry, looked up): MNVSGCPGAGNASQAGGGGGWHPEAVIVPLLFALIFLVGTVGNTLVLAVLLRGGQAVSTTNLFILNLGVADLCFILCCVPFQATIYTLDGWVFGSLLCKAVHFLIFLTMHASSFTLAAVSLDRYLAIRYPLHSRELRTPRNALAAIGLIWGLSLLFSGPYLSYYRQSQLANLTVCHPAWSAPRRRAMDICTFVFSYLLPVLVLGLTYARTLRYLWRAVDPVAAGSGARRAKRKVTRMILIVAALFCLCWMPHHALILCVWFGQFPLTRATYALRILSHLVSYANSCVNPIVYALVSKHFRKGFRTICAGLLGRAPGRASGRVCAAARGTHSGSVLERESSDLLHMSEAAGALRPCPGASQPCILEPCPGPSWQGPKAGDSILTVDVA
# RGS16-Gao HTS: regulators of human RGS16-Galphao interaction; bead-based flow cytometry RGS16-Galphao binding, fluorescence; actives lie on both sides; AID 1441; binding response (% of control), % at 10 µM; actives 0.38% (n = 220,000);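 active means below 25% or above 175%, edge rows of some plates excepted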;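 further: Galphao activated by GDP with aluminum fluoride before binding; 100% = wells without compound and 0% = beads without RGS; some results beyond the cut were filed as inactive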
# Target sequence (O15492 whole entry, looked up): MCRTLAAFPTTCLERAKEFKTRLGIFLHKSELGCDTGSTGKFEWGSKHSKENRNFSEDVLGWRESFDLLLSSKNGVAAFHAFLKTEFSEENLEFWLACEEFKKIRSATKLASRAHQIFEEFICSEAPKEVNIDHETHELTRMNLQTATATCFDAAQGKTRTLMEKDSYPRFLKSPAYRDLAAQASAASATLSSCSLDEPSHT
# Target sequence (P09471 whole entry, looked up): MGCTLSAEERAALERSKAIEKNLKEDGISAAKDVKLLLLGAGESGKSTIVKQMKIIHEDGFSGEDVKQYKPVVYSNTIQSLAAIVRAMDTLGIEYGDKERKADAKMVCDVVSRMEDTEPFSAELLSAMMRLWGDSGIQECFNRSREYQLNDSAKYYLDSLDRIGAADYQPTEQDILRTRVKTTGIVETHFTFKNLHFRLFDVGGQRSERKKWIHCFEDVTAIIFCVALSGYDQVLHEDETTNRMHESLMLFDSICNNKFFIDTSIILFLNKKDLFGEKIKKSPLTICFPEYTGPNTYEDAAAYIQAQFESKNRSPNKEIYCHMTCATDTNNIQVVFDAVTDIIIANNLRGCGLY
# HSV augment: HSV replication enhancement. HSV replication augmentation in cells, fold increase. maximum fold increase. actives 0.005% (n = 220,000). AID 1956;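 active means peak rise of 1.5-fold or more in the series; inconclusive means self-fluorescent or not available for retest; tested in PC3 cells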;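 further: first round at 10 µM; read as green reporter fluorescence; hits show the peak of a series up to 25 µM; 1 = signal of infected wells without compound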
# INS promoter inh cell count: second read-out of INS promoter inh, no call of its own (marks repeat the call); normalized cell count, %; measured here: cell count, toxicity; reference of the scale not given here;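 cells exposed to compound for 48 h; stained nuclei by imaging scaled within each plate; lower means fewer cells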
# HSV augment primary fold: second read-out of HSV augment, no call of its own (marks repeat the call); fold increase; compound at 10 µM; measured here: primary screen fold increase 10 uM; tested in PC3 cells;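 GFP signal in the first replicate; 1 = infected wells without compound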
# * hit, by the source's call; i = inactive; u = inconclusive; x = not tested or not shown.
SMILES,INS promoter inh,INS promoter inh cell count,PKD1 inh,GALR2 agonist,RGS16-Gao HTS,HSV augment,HSV augment primary fold
Cc1cc(C)cc(NC(=O)N2CCCN(c3ncccc3[N+](=O)[O-])CC2)c1,x,x,x,x,101.6,i,0.95
O=C(Nc1ccccc1)c1ccccc1Oc1ccc(C(F)(F)F)cc1[N+](=O)[O-],x,x,-9.0,0.1,102.3,i,0.98
CN(c1ccccc1)S(=O)(=O)c1ccc(Cl)c(C(=O)Nc2ccc(-c3nc4ccccc4[nH]3)cc2)c1,14.8,165.0,-4.0,0.2,106.4,i,0.62
CC(C)C(=O)Nc1nnc(COc2ccc(Cl)cc2)s1,x,x,x,x,104.8,i,0.98
O=C(NCC1CCCO1)C1CCC(CNS(=O)(=O)c2ccccc2)CC1 (centres undefined),-84.0,117.2,-9.4,-0.1,104.8,i,0.85
COc1ccc(-c2nc(=S)c3c(n2CCN2CCOCC2)CC(C)(C)OC3)cc1,x,x,-9.3,-1.4,100.8,i,0.98
CCC1=Nc2ccccc2NC2=C1C(=O)CCC2,60.7,71.2,7.2,-1.7,96.3,u,x
O=C(N/N=C/c1cn(-c2cccs2)nc1-c1ccccc1)c1ccccc1O,9.8,100.9,1.1,-0.6,105.9,i,0.81
O=[N+]([O-])c1ccccc1N/N=C1\CCc2ccccc21,11.8,90.2,4.5,x,97.7,i,1.17
C=CCn1c(CNC(=O)c2ccco2)nnc1SCC(=O)Nc1cccc(F)c1,x,x,2.8,x,103.4,i,0.88
Cc1ccc(C)c(OCC(=O)Nc2c[nH]c(=O)[nH]c2=O)c1,x,x,-4.6,-1.9,93.8,x,x
Nc1cc[n+](CC(=O)Nc2ccccc2)cc1,-26.8,74.7,-4.0,x,112.8,i,1.01

# Shown with values under each structure: 7 of the compounds above
# Values in the order: INS promoter inh | INS promoter inh cell count | PKD1 inh | GALR2 agonist | RGS16-Gao HTS | HSV augment | HSV augment primary fold
- CC(C)C(=O)Nc1nnc(COc2ccc(Cl)cc2)s1
→ x | x | x | x | 104.8 | i | 0.98
- O=C(NCC1CCCO1)C1CCC(CNS(=O)(=O)c2ccccc2)CC1 (centres undefined)
→ -84.0 | 117.2 | -9.4 | -0.1 | 104.8 | i | 0.85
- COc1ccc(-c2nc(=S)c3c(n2CCN2CCOCC2)CC(C)(C)OC3)cc1
→ x | x | -9.3 | -1.4 | 100.8 | i | 0.98
- CCC1=Nc2ccccc2NC2=C1C(=O)CCC2
→ 60.7 | 71.2 | 7.2 | -1.7 | 96.3 | u | x
- O=C(N/N=C/c1cn(-c2cccs2)nc1-c1ccccc1)c1ccccc1O
→ 9.8 | 100.9 | 1.1 | -0.6 | 105.9 | i | 0.81
- O=[N+]([O-])c1ccccc1N/N=C1\CCc2ccccc21
→ 11.8 | 90.2 | 4.5 | x | 97.7 | i | 1.17
- C=CCn1c(CNC(=O)c2ccco2)nnc1SCC(=O)Nc1cccc(F)c1
→ x | x | 2.8 | x | 103.4 | i | 0.88

# (listing goes on)
SMILES,INS promoter inh,INS promoter inh cell count,PKD1 inh,GALR2 agonist,RGS16-Gao HTS,HSV augment,HSV augment primary fold
O=C(O)CCC(=O)NCc1c(Cl)cccc1Sc1ccc(Cl)cc1,x,x,x,x,113.4,i,0.98
COc1ccc2c(C)cc(SCc3c(C)noc3C)nc2c1,-31.0,122.0,4.9,0.1,345.2,i,0.97
Cc1cc(N)n2ncc(-c3ccc(Cl)cc3)c2n1,32.4,120.2,0.0,-1.5,94.4,i,0.92
COc1ccc(-c2cn3cc([N+](=O)[O-])ccc3n2)cc1OC,x,x,2.0,x,102.5,i,0.97
COc1ccc(CCNC(=O)CSc2cn(Cc3cccc(C)c3)c3ccccc23)cc1OC,-95.0,127.0,-7.8,0.8,101.0,i,0.93
COc1ccccc1C(=O)OCC(=O)NC(=O)NCc1ccccc1,x,x,-8.3,x,99.8,i,1.02
CCSc1ccccc1C(=O)N1CCN(Cc2ccc3c(c2)OCO3)CC1,-204.8,92.6,-3.1,-2.4,91.3,i,1.12
O=c1cc(-c2ccccc2)[nH]c2ccccc12,-278.6,6.8,3.2,-0.5,108.9,i,0.65
O=C(NC1CCCCCC1)c1ccc2nc3cc(Cl)ccc3c(=O)n2c1,-13.5,58.1,2.4,x,110.2,i,1.08
CN(C)/C=C/C(=O)c1cc(F)cc(C(F)(F)F)c1,x,x,1.5,x,90.1,i,0.91
Cc1ccc(S(=O)(=O)/N=C2\SC(CC(=O)Nc3ccc(F)cc3)C(=O)N2c2ccccc2)cc1 (centres undefined),-44.8,107.7,-8.6,-0.6,89.4,i,0.98
COc1ccc2c(c1)C(NC(=O)C(F)(F)F)CC2=O (centres undefined),4.5,47.5,17.7,-0.4,104.6,i,0.94

# Limited to PKD1 inh and RGS16-Gao HTS, for some of the entries so far:
Structure	PKD1 inh	RGS16-Gao HTS
Cc1cc(N)n2ncc(-c3ccc(Cl)cc3)c2n1	0.0	94.4
Cc1ccc(S(=O)(=O)/N=C2\SC(CC(=O)Nc3ccc(F)cc3)C(=O)N2c2ccccc2)cc1 (centres undefined)	-8.6	89.4
COc1ccccc1C(=O)OCC(=O)NC(=O)NCc1ccccc1	-8.3	99.8
COc1ccc(-c2cn3cc([N+](=O)[O-])ccc3n2)cc1OC	2.0	102.5

# (cont.)
SMILES,INS promoter inh,INS promoter inh cell count,PKD1 inh,GALR2 agonist,RGS16-Gao HTS,HSV augment,HSV augment primary fold
CC1CCN(S(=O)(=O)c2ccc(-c3nnc(SCc4cccnc4)o3)cc2)CC1,x,x,7.9,-0.9,106.1,i,0.86
NS(=O)(=O)c1cc(C2(O)NC(=O)c3ccccc32)ccc1Cl (centres undefined),-47.6,69.9,-3.4,-0.2,59.1,i,0.92
COc1ccccc1NC(=S)N(Cc1ccccc1)Cc1ccccn1,18.8,98.5,-11.4,0.9,67.8,i,1.03
Cn1cc(Cl)c(C(=O)N/N=C/c2ccc(OS(=O)(=O)c3ccccc3)cc2)n1,-57.1,157.6,-0.6,-1.9,104.5,i,0.82
O=C(NCC1CCCN(Cc2cccc(OCCO)c2)C1)c1ccc(F)cc1 (centres undefined),x,x,0.0,x,92.2,i,0.99
N#Cc1c(-c2ccc(F)cc2)ccnc1N1CCOCC1,57.1,83.6,-6.9,x,106.1,i,0.96
CCOc1ccc2nc(NC(=O)CSc3nc4c(c(=O)n(C)c(=O)n4C)n3C(C)C)sc2c1,33.3,105.6,9.7,0.8,99.7,x,x
C#CCSc1cc(C(F)(F)F)nc(-c2ccccn2)n1,x,x,0.7,x,102.8,i,1.01
Cc1ccc(SCC(=O)Nc2c(Br)cnn2C)cc1,x,x,x,x,97.4,i,1.01
CCOC(=O)c1c(-c2cccc([N+](=O)[O-])c2)csc1N,-18.8,85.5,1.4,0.5,104.4,i,0.89
CCCS(=O)(=O)NCCc1cc2c(C)ccc(C)c2[nH]c1=O,-211.1,40.8,0.4,x,111.2,i,1.08
CC1CC(C)CN(C(=O)COC(=O)CCc2nc3ccccc3c(=O)[nH]2)C1 (centres undefined),21.9,146.4,-14.2,-1.1,102.3,i,0.8

# Among those listed so far, two contain a thiophene ring, fused or not.
SMILES,INS promoter inh,INS promoter inh cell count,PKD1 inh,GALR2 agonist,RGS16-Gao HTS,HSV augment,HSV augment primary fold
O=C(N/N=C/c1cn(-c2cccs2)nc1-c1ccccc1)c1ccccc1O,9.8,100.9,1.1,-0.6,105.9,i,0.81
CCOC(=O)c1c(-c2cccc([N+](=O)[O-])c2)csc1N,-18.8,85.5,1.4,0.5,104.4,i,0.89

# (further entries)
SMILES,INS promoter inh,INS promoter inh cell count,PKD1 inh,GALR2 agonist,RGS16-Gao HTS,HSV augment,HSV augment primary fold
Cc1ccc(CNC(=O)CCC2CCCN(Cc3cccc4c3OCO4)C2)o1 (centres undefined),x,x,x,x,99.6,i,1.12
CC1CCN(c2oc(Cc3cccc4ccccc34)nc2C#N)CC1,0.0,158.9,1.8,-2.3,106.0,i,0.99
COc1ccccc1Cn1nnc2c(=O)[nH]c(C3CCN(C(=O)c4ccc(F)cc4)CC3)nc21,39.4,111.8,-2.9,0.1,100.4,i,0.99
N#C/C(=C(/O)COc1ccccc1)c1nc2ccccc2s1,x,x,2.5,x,100.2,i,1.03
Clc1cccc(Cl)c1COc1ccncc1,33.3,100.0,3.5,-1.2,105.2,i,1
COCCN(CCOC)C(=O)COC(=O)c1cc([N+](=O)[O-])ccc1Cl,x,x,x,x,99.6,i,0.94
Cc1cccc(Nc2nnc(-c3ccc(C(=O)N4C[C@H]5C[C@H](C4)c4cccc(=O)n4C5)cc3)c3ccccc23)c1,26.3,71.9,4.9,-1.9,118.9,i,0.98
COc1ccc(CNC(=O)c2ccc(S(=O)(=O)N3CCCC3)cc2)cc1OC,-13.8,140.7,-5.2,-2.0,101.2,i,0.94
Cc1cccc(N(CC(=O)NCc2ccc3c(c2)OCO3)C(=O)CCC(=O)Nc2ccccn2)c1,x,x,-3.0,-2.2,104.6,i,0.86
O=C(CN1CCN(Cc2ccccc2)C1=O)NCCCN1CCOCC1,x,x,-6.2,-1.1,98.1,i,0.89
CCc1ccc(C(=O)COC(=O)CNC(=O)c2ccc(N3C(=O)c4ccccc4C3=O)cc2)cc1,0.0,135.9,9.6,-0.7,102.6,i,0.73
CCOc1cc(N2CCCC2)ccc1[N+](=O)[O-],-17.6,110.7,-10.6,0.8,100.3,i,0.98
COc1ccc(C2c3ccc(O)cc3Oc3ncn(CCN4CCOCC4)c(=N)c32)cc1 (centres undefined),x,x,x,x,94.1,i,1.13
COc1ccc(C2NC(=O)NC(C)=C2C(=O)Nc2cccc(C)c2C)cc1 (centres undefined),x,x,-0.1,-2.6,99.6,i,0.95
Cc1ccc(C(C)C)cc1C(=O)CC1(O)C(=O)N(C)c2ccccc21 (centres undefined),-54.5,90.4,-12.2,-2.3,90.2,i,1.09
CCn1c(=N)c(S(=O)(=O)c2ccc(F)cc2)cc2c(=O)n3ccccc3nc21,-18.2,91.5,-9.8,3.6,104.8,i,0.85
COc1ccc(N(CN2C(=O)C3CC=CCC3C2=O)C(=O)c2ccco2)cc1 (centres undefined),-10.7,131.6,6.5,-2.1,97.5,i,0.98
COc1cc(OC)c2ccc(=O)oc2c1C(CCN1CCN(c2ccccc2)CC1)c1ccc2c(c1)OCO2 (centres undefined),x,x,x,x,101.7,i,0.97
COc1ccc(N2CCN(C(c3cccs3)C(C)NS(C)(=O)=O)CC2)cc1 (centres undefined),18.2,51.3,-0.3,x,111.5,i,1.04
COC(=O)CN(c1nc(C)cc(OC)n1)S(=O)(=O)c1ccc(C)cc1,21.9,106.7,-16.4,-0.2,109.3,i,1.06
O=[N+]([O-])c1cc(C(F)(F)F)ccc1NCCc1c[nH]c2ccc(O)cc12,-25.0,88.1,-10.1,-5.2,102.6,i,0.84
COc1ccc(CN2CCN(S(=O)(=O)c3ccccc3)CC2)cc1Br,x,x,-3.8,-0.3,97.2,i,0.87
Nc1cc(=O)[nH]c(SCc2nc3ccccc3n2Cc2ccccc2)n1,26.1,56.6,7.0,-0.7,108.8,i,0.87
Cc1nc2ncnn2c(C)c1CCC(=O)N1CCN(c2ccccn2)CC1,x,x,-1.0,0.0,102.4,i,0.9

# 3 compounds out of the list above, ordered by the value under HSV augment primary fold, high to low.
Molecule,HSV augment primary fold
CCCS(=O)(=O)NCCc1cc2c(C)ccc(C)c2[nH]c1=O,1.08
CC1CCN(c2oc(Cc3cccc4ccccc34)nc2C#N)CC1,0.99
CC(C)C(=O)Nc1nnc(COc2ccc(Cl)cc2)s1,0.98

# Next section:
SMILES,INS promoter inh,INS promoter inh cell count,PKD1 inh,GALR2 agonist,RGS16-Gao HTS,HSV augment,HSV augment primary fold
Cc1nn(CC#N)c(=O)n1-c1ccc(F)cc1,-18.8,140.0,0.2,-1.5,54.1,i,1.07
COC(=O)/C=C1/SC(=NC(=O)c2ccc(F)cc2)NC1=O,x,x,x,x,104.1,i,0.95
Cc1nc2ncnn2c(N2CCCC(C(=O)Nc3ccccc3Br)C2)c1C (centres undefined),15.4,65.3,-0.3,x,108.7,i,0.92
Clc1ccc2nc(CSc3nnc4ccccn34)cn2c1,-45.7,76.0,4.1,-1.5,112.9,i,1.01
Cc1ccccc1C(C(=O)NC1CCCCC1)N(C(=O)c1ccccn1)c1cccnc1 (centres undefined),x,x,1.9,x,102.6,i,1.1
CC(C)(C)c1ccc(NS(=O)(=O)c2ccc(N)cc2)cc1,x,x,x,x,105.7,i,0.92
CCOc1ccccc1C(=O)Nc1nnc(SCC(=O)Nc2cc(C)on2)s1,-21.1,138.1,-4.0,x,96.7,i,1.1
O=C(CSc1ncn[nH]1)NCCCc1ccccc1,x,x,-9.7,-2.0,102.1,i,0.92

# Compound activity from PubChem BioAssay.
